Bioassay records deposited in PubChem by Broad Institute.
DUX4 inh = DUX4-mediated transcription inhibition; activity change, negative = inhibition, % (concentration not given with the values); 293T-iDUX4 ZSCAN4-Gaussia luciferase reporter, 24 h; active compounds read low; 0.8% of 37,000 active;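 active = -10% or lower and over 25 points stronger than a control reporter; inconclusive = -10% or lower with a smaller gap; inactive = above -10%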;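 also: 0% = median of neutral control wells and -100% = median of positive control wells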
DUX4 inh difference = further read-out of DUX4 inh, marked with its call; Gaussia minus Italica difference, %; measured here: selective DUX4 reporter inhibition;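 worked out from the two reporters; negative = selective loss of the DUX4 reporter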
DUX4 inh control = also measured in DUX4 inh; calls as there; activity change, negative = inhibition, %; measured here: Italica tet-on control reporter;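 0 = neutral control and -100 = positive control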
* = called active by the depositor; ? = inconclusive; . = not tested or not shown; ! = not confirmed by another sample. This is a subset; rates above refer to the full screens.

Below each compound: DUX4 inh | DUX4 inh difference | DUX4 inh control
CCCNC(=O)N1CC2(CN(Cc3ccc(OC)cc3)C2)c2c(n(C)c3cc(OC)ccc23)[C@H]1CO
 : ? | . | .
CS(=O)(=O)Nc1ccc2c(c1)[C@@H]1C[C@@H](CC(=O)NCC(F)(F)F)O[C@@H](CO)[C@@H]1O2
 : 4 | 1 | 3.1
O=C(C1CCCCC1)N1CC2(C1)[C@H](c1ccccc1)[C@@H](CO)N2C(=O)NC1CCCC1
 : -1 | -1 | 0.2
CN1c2ccc(Br)cc2[C@@H]2[C@@H](CCN2C(=O)c2ccc(F)cc2)[C@H]1CO
 : 21 | 20 | 0.7
CO[C@@H](CN(C)C(=O)Nc1ccc(F)cc1)[C@@H](C)CN(Cc1ccccc1Cl)[C@@H](C)CO
 : 0 | -3 | 3.5
Cc1ccc(S(=O)(=O)N[C@H]2CC[C@H](CC(=O)NCc3ccncn3)O[C@@H]2CO)cc1
 : -2 | -2 | 0.6
CCCNC(=O)N1CC(=O)N2[C@H](C1)[C@@H](c1ccc(C#Cc3ccccc3)cc1)[C@@H]2CO
 : ? | . | .
C[C@@H]1CCCCO[C@@H](CN(C)C(=O)CCCN(C)C)[C@@H](C)CN([C@H](C)CO)C(=O)c2cc(NC(=O)Nc3ccc4c(c3)OCO4)ccc2O1
 : -2 | -5 | 3.7
COc1ccc(NC(=O)Nc2ccc3c(c2)C(=O)N([C@@H](C)CO)C[C@@H](C)[C@@H](CN(C)Cc2ccncc2)OCCCC[C@H](C)O3)cc1
 : 2 | -3 | 4.6
COc1ccc(S(=O)(=O)N2CC[C@@H]3[C@@H](CO)Nc4ccc(-c5ccccc5F)cc4[C@@H]32)cc1
 : -10 | 6 | -15
CCS(=O)(=O)N[C@@H]1C=C[C@H](CC(=O)NC2Cc3ccccc3C2)O[C@H]1CO
 : 9 | 13 | -4.0
C[C@H](CO)N1C[C@H](C)[C@H](CN(C)C(=O)Nc2cc(F)ccc2F)Oc2cc(C#CC3CCCC3)ccc2S1(=O)=O
 : -2 | -7 | 4.7
OC[C@@H]1Nc2ccc(C#Cc3ccc(F)cc3)cc2[C@H]2[C@@H]1CCN2Cc1nccs1
 : ? | . | .
O=C(CN1CCOCC1)N1[C@H](CO)[C@@H]2c3ccccc3NC[C@@H]21
 : 1 | 1 | 0.0
CCS(=O)(=O)N1Cc2cc(C(=O)NCC3CC3)nc(-c3cccc(-c4cccnc4)c3)c2[C@H]1CCO
 : 6 | 7 | -0.9
O=C(C[C@@H]1CC[C@H]2[C@@H](COC[C@H](O)CN2C(=O)Nc2ccc(F)cc2)O1)NCCCN1CCOCC1
 : 8 | -2 | 11
OC[C@@H]1[C@@H](c2ccc(C#Cc3ccccc3F)cc2)[C@H]2CN(CC3CCOCC3)CCCCN12
 : -9 | -24 | 15
C[C@@H]1CN([C@@H](C)CO)C(=O)CCCn2nncc2CO[C@@H]1CN(C)C
 : 3 | 1 | 1.6
CNC[C@@H]1Oc2ccc(NC(=O)CCC(F)(F)F)cc2C(=O)N([C@H](C)CO)C[C@@H]1C
 : -6 | -3 | -2.2
CS(=O)(=O)Nc1ccc2c(c1)[C@@H]1C[C@@H](CC(=O)O)O[C@H](CO)[C@@H]1O2
 : 0 | -1 | 1.2
Cc1ccccc1-c1cnc2c(c1)C(=O)N([C@H](C)CO)C[C@H](C)[C@H](CN(C)CC1CCOCC1)O2
 : -5 | -3 | -1.4
COc1ccc(NC(=O)N[C@@H]2CC[C@@H](CCNS(=O)(=O)c3cccc(Cl)c3)O[C@@H]2CO)cc1
 : -1 | -5 | 3.3
CO[C@H]1CN(C)C(=O)c2ccc(NC(=O)C3CC3)cc2OC[C@@H](C)N(Cc2cncnc2)C[C@@H]1C
 : 1 | 1 | 0.2
COCC(=O)N1CC2(C1)CN(Cc1cccc(F)c1)[C@@H](CO)c1c2c2ccc(OC)cc2n1C
 : 4 | 5 | -0.6
C[C@@H](O)C#Cc1ccc([C@H]2[C@@H](CO)N3CCCCN(S(=O)(=O)c4ccccc4)C[C@@H]23)cc1
 : 2 | 6 | -3.7
Cc1ccccc1S(=O)(=O)N1CC[C@H]2[C@H](CO)Nc3ccc(C#Cc4ccccc4)cc3[C@H]21
 : ? | . | .
C[C@H]1CN([C@@H](C)CO)C(=O)CCCn2nncc2CO[C@H]1CN(C)C(=O)c1ccncc1
 : -3 | -9 | 6.0
OC[C@H]1[C@H](c2ccc(-c3ccccc3F)cc2)[C@H]2CN(Cc3cccnc3)CCCCN21
 : 1 | 17 | -16
CCNC(=O)Nc1ccc2c(c1)C(=O)N(C)[C@H]1CC[C@@H](CC(=O)NCCN3CCCC3)O[C@@H]1CO2
 : 0 | -3 | 2.5
C[C@H]1CN([C@@H](C)CO)C(=O)c2cc(C3=CCCCC3)cnc2O[C@H]1CN(C)C(=O)Cc1ccncc1
 : 3 | -1 | 3.9
C[C@@H]1CCCCO[C@@H](CN(C)C(=O)c2ccncc2)[C@@H](C)CN([C@H](C)CO)C(=O)c2cc(N(C)C)ccc2O1
 : 0 | -5 | 4.2
CCCN1[C@@H]2Cn3c(ccc(-c4ccccc4)c3=O)[C@H]1[C@@H](C(=O)NCCCN1CCOCC1)[C@@H]2CO
 : 3 | 3 | -0.4
COc1ccccc1-c1ccc([C@@H]2[C@@H](C#N)N(C(=O)C3CCC3)[C@@H]2CO)cc1
 : 4 | 5 | -0.8
C/C=C/c1ccc([C@@H]2[C@@H](CO)N(C(=O)CN(C)C)C23CN(C(=O)C2CCCC2)C3)cc1
 : 3 | 3 | 0.0
N#C[C@H]1[C@@H](c2ccccc2-c2ccccc2)[C@H](CO)N1C(=O)Cc1ccccc1
 : 13 | 7 | 5.4
O=C(c1ccc2c(c1)OCO2)N1C[C@@H]2N[C@H](C1)C2c1ccc(-c2ccccc2F)cc1 (stereo partly specified)
 : ? | 0 | 7.7
COc1ccccc1-c1ccc2c(c1)O[C@H](CN(C)Cc1ccc3c(c1)OCO3)[C@H](C)CN([C@H](C)CO)S2(=O)=O
 : 1 | -3 | 3.6
COc1ccc(-c2ccc(C3[C@@H]4CN(S(=O)(=O)c5ccccc5C)C[C@H]3N4)cc2)cc1 (stereo partly specified)
 : -42*! | -37* | -5.7*
N#C[C@@H]1[C@H](c2ccc(C#CC3CCCCC3)cc2)[C@@H](CO)N1C(=O)c1cccc(F)c1
 : -1 | -2 | 1.4
CCN1[C@@H]2Cn3c(ccc(-c4cccc(F)c4)c3=O)[C@H]1[C@@H](C(=O)N(C)C)[C@@H]2CO
 : 3 | -1 | 4.4

Shown with the structure last: 3 of the compounds above.
DUX4 inh | DUX4 inh difference | DUX4 inh control | Molecule
3 | 3 | 0.0 | C/C=C/c1ccc([C@@H]2[C@@H](CO)N(C(=O)CN(C)C)C23CN(C(=O)C2CCCC2)C3)cc1
13 | 7 | 5.4 | N#C[C@H]1[C@@H](c2ccccc2-c2ccccc2)[C@H](CO)N1C(=O)Cc1ccccc1
? | 0 | 7.7 | O=C(c1ccc2c(c1)OCO2)N1C[C@@H]2N[C@H](C1)C2c1ccc(-c2ccccc2F)cc1 (stereo partly specified)

Other results.
Below each compound: DUX4 inh | DUX4 inh difference | DUX4 inh control
C[C@H]1CN([C@@H](C)CO)C(=O)CCCn2cc(nn2)CO[C@@H]1CN(C)C(=O)OCc1ccccc1
 : 5 | 3 | 2.7
CCNC(=O)C[C@H]1CC[C@@H]2[C@@H](COc3ccc(NC(=O)Nc4ccccc4Cl)cc3C(=O)N2C)O1
 : 8 | 35 | -27
CN1c2ccc(Br)cc2[C@H]2[C@H](CCN2S(=O)(=O)c2ccc(F)cc2)[C@H]1CO
 : 10 | 0 | 10
C[C@H]1CN([C@@H](C)CO)C(=O)c2cc(C#CC3CCCCC3)cnc2O[C@H]1CN(C)S(=O)(=O)c1ccccc1
 : -1 | -1 | -0.4
C[C@H](CO)N1C[C@H](C)[C@H](CN(C)C(=O)c2ccc(F)cc2)OCc2ccccc2-c2c(n(C)c3ccccc23)C1=O
 : ? | . | .
C[C@@H]1CCCCO[C@H](CN(C)S(=O)(=O)c2cn(C)cn2)[C@@H](C)CN([C@H](C)CO)C(=O)c2cc(NC(=O)Nc3cccc4ccccc34)ccc2O1
 : 0 | -1 | 1.4
COCC(=O)Nc1ccc2c(c1)OC[C@@H](C)N(Cc1ccncc1)C[C@@H](C)[C@H](OC)CN(C)C2=O
 : 3 | -4 | 6.9
C/C=C/c1ccc([C@@H]2[C@@H](CN(C)C(C)=O)N(C(=O)NC(C)C)[C@H]2CO)cc1
 : 1 | 2 | -1.1
C[C@H](CO)N1C[C@H](C)[C@@H](CN(C)S(=O)(=O)c2ccc(Cl)cc2)OCc2cn(nn2)CCCC1=O
 : -3 | -2 | -0.2
C[C@H]1CN([C@@H](C)CO)C(=O)c2c(c3ccccc3n2C)-c2ccccc2CO[C@@H]1CN(C)Cc1cccc(C(=O)O)c1
 : 3 | -4 | 7.4
COc1ccc(S(=O)(=O)Nc2ccc3c(c2)C(=O)N([C@@H](C)CO)C[C@H](C)[C@H](CN(C)C(=O)Nc2c(C)noc2C)OCCCC[C@@H](C)O3)cc1
 : 1 | -2 | 3.0
C[C@@H]1CN([C@@H](C)CO)C(=O)c2c(c3ccccc3n2C)-c2ccccc2CO[C@@H]1CN(C)Cc1ccccc1C(F)(F)F
 : ? | . | .
COc1ccc(CNC(=O)C[C@H]2C[C@H]3c4cc(N(C)C)ccc4O[C@H]3[C@H](CO)O2)cc1
 : -3 | -3 | 0.3
Cc1ccc(S(=O)(=O)N2CC[C@@H]3[C@H](CO)Nc4ccc(-c5ccccc5F)cc4[C@@H]32)cc1
 : ? | . | .
O=C(Cc1ccccc1)N1CC(=O)N2[C@@H](CO)[C@H](c3ccc(Br)cc3)[C@@H]2C1
 : 9 | -7 | 15
CO[C@H]1CC[C@@H]2CCN(C)C(=O)C[C@H](c3ccccc3)CN(C)C(=O)c3cc(C#N)ccc3OC[C@H]1O2
 : -1 | 0 | -0.8
O=C(C[C@@H]1CC[C@H]2[C@@H](COC[C@@H](O)CN2CCC(F)(F)F)O1)NCc1ccc2c(c1)OCO2
 : -3 | -13 | 10
CCCNC(=O)C[C@H]1CC[C@@H]2[C@@H](COc3ccc(NC(=O)CC)cc3C(=O)N2C)O1
 : -6 | -3 | -3.4
CO[C@@H](CN(C)S(=O)(=O)c1cccc(Cl)c1)[C@@H](C)CN(C(=O)Nc1ccccc1F)[C@H](C)CO
 : 6 | 1 | 5.6
C/C=C/c1ccc([C@H]2[C@@H](CO)N3C(=O)CN(C(=O)Nc4ccccc4F)C[C@@H]23)cc1
 : -1 | -11 | 10
O=C([C@H]1[C@H](CO)[C@H]2Cn3c(ccc(-c4cccnc4)c3=O)[C@@H]1N2CC1CC1)N1CCCCC1
 : 0 | -6 | 5.6
O=C(C1CC1)N1CC2(C1)[C@@H](c1ccccc1)[C@@H](CO)N2Cc1ccc(Cl)cc1
 : ? | . | .
O=C(C[C@H]1C[C@H]2c3cc(NC(=O)C4CCC4)ccc3O[C@H]2[C@@H](CO)O1)NCc1ccc(Cl)cc1
 : 3 | 1 | 1.4
O=C1N[C@@H](Cc2ccccc2)COCc2cn(nn2)CC[C@@H]1Cc1cccc(F)c1
 : -5 | -9 | 3.2
CCCNC(=O)N[C@@H]1CC[C@@H](CC(=O)N2CCN(C)CC2)O[C@@H]1CO
 : 0 | -6 | 5.8
C[C@H]1CCCCO[C@@H](CN(C)S(=O)(=O)c2ccccc2)[C@@H](C)CN([C@@H](C)CO)C(=O)c2cc(NS(C)(=O)=O)ccc2O1
 : -4 | -4 | -0.3
COc1ccc(S(=O)(=O)N(C)C[C@H]2Oc3ccc(NC(=O)Cc4cn(C)c5ccccc45)cc3C(=O)N([C@@H](C)CO)C[C@H]2C)cc1
 : 2 | 1 | 1.2
CO[C@H]1CN(C)C(=O)c2ccc(NC(=O)Nc3ccccc3)cc2OC[C@@H](C)N(C(=O)CC2CC2)C[C@@H]1C
 : -7 | -12 | 5.4
C[C@@H]1CN([C@@H](C)CO)C(=O)CCCn2cc(nn2)CO[C@H]1CN(C)C(=O)Nc1ccccc1
 : 0 | 0 | -0.4
COc1cccc(NC(=O)Nc2ccc3c(c2)C(=O)N(C)[C@H]2CC[C@@H](CC(=O)NCCc4ccccc4)O[C@@H]2CO3)c1
 : 0 | 2 | -2.2
CC(C)C#Cc1cnc2c(c1)C(=O)N([C@@H](C)CO)C[C@H](C)[C@@H](CN(C)C(=O)Nc1ccccc1F)O2
 : 0 | -1 | 0.8
COc1cccc(NC(=O)Nc2ccc3c(c2)C(=O)N(C)[C@@H]2CC[C@@H](CC(=O)NCCc4ccccc4)O[C@H]2CO3)c1
 : -4 | -3 | -0.8
C[C@H](CO)N1C[C@H](C)[C@H](CN(C)S(=O)(=O)c2cccc(F)c2)Oc2ncc(-c3cccc(C(=O)N(C)C)c3)cc2C1=O
 : 0 | 2 | -1.7
CCC(=O)Nc1ccc2c(c1)OC[C@@H](C)N(CC1CC1)C[C@@H](C)[C@@H](OC)CN(C)C2=O
 : 0 | -1 | 0.9
CC(C)c1cn(CC[C@H]2CC[C@@H](NS(=O)(=O)c3ccc(F)cc3)[C@@H](CO)O2)nn1
 : 2 | -2 | 4.8
CCCNC(=O)Nc1ccc2c(c1)C(=O)N(C)[C@H]1CC[C@@H](CC(=O)NC)O[C@H]1CO2
 : -2 | -4 | 2.4
CC(C)C#Cc1ccc([C@H]2[C@@H](C#N)N(C(=O)C3CCOCC3)[C@H]2CO)cc1
 : 0 | 0 | 0.6
COCC(=O)N1C[C@H](C)[C@H](OC)CN(C)C(=O)c2ccc(NC(=O)Nc3cccc(F)c3)cc2OC[C@H]1C
 : -6 | -8 | 2.6

Grouped by structure, those above containing bromine.
Below each compound: DUX4 inh | DUX4 inh difference | DUX4 inh control
CN1c2ccc(Br)cc2[C@@H]2[C@@H](CCN2C(=O)c2ccc(F)cc2)[C@H]1CO
 : 21 | 20 | 0.7
CN1c2ccc(Br)cc2[C@H]2[C@H](CCN2S(=O)(=O)c2ccc(F)cc2)[C@H]1CO
 : 10 | 0 | 10
O=C(Cc1ccccc1)N1CC(=O)N2[C@@H](CO)[C@H](c3ccc(Br)cc3)[C@@H]2C1
 : 9 | -7 | 15
